HPGD inh: blocks human HPGD enzyme activity | Potency, µM, without a hit: at the top dose activity change, negative = inhibition, actives largely listed as inhibitors | purified HPGD, NADH fluorescence kinetic, PGE2 substrate | 150,000 tested, 4.3% active; active = well fitted inhibition curve with a large enough effect (not every such curve was filed as active); inconclusive = small, poorly fitted or top-dose-only effect, or another doubt; inactive = no such curve, though single readings can be large or run the other way;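 note: top concentration of the series not given in the record; plate controls included wells without enzyme; inactives centre near -10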
Target sequence (P15428 whole entry, looked up): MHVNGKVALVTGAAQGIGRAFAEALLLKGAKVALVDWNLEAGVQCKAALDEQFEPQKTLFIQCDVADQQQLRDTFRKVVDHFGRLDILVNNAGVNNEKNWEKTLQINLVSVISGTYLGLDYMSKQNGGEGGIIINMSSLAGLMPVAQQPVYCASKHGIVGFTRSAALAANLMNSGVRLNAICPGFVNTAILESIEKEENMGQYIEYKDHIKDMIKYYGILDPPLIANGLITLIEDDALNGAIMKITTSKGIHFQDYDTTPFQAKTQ
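NADH formation kinetics: reaction with 30 uM PGE2 and 1 mM NAD+ (final), 20 nM enzyme, Tris-HCl pH 8 with Tween 20, after 15 min compound preincubation at room temperature. Fluorescence change, last versus first of five reads.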
* = called active by the depositor; ? = inconclusive; & = joins results of further samples. % is set by controls: 0 for no effect and ±100 for the full control effect; potency is the fitted concentration of half-maximal effect. A portion of the library, so the mix of outcomes need not match the whole.

SMILES | HPGD inh
CC(C)NCCOc1cccc(Br)c1 | -7%
Nc1nc(Br)c2c(F)cccc2c1-c1ccc(Cl)cc1 | -14%
Cc1ccnc(NS(=O)(=O)c2ccc(NC(=O)c3cc(-c4ccc(Br)cc4)nc4ccccc34)cc2)n1 | -13%
CC(=O)Nc1ccc(S(=O)(=O)NC(CC(=O)NCCCN2CCOCC2)C(C)C)cc1 (configuration not stated) | -5%
O=C1NC(c2ccccc2)(C(F)(F)F)SC2=NCCCN12 (configuration not stated) | -3%
N/C(=N\OS(=O)(=O)c1ccc2ccccc2c1)c1ccncc1 | -24%
Cc1csc(NC(=O)C(CC(C)C)NS(=O)(=O)c2ccc3c(c2)oc(=O)n3C)n1 (configuration not stated) | -14%
COc1ccc(CC[N@+]2(C)COc3cc4oc(=O)cc(C)c4cc3C2)cc1OC | 1%
Cc1ccc(NC(=O)CCS(=O)(=O)c2ccc(Br)cc2)nc1 | -7%
C=CCNc1nnc(SC2CC(=O)N(c3ccc(OC)cc3)C2=O)s1 (configuration not stated) | ?
COC(=O)CC/C(C)=N\Nc1ccc([N+](=O)[O-])cc1[N+](=O)[O-] | -2%
CC1(C)CC(=O)C2=C(C1)N(Cc1ccco1)C(=O)C2(O)C(F)(F)F (configuration not stated) | -6%
C=CCOC(=O)NC(c1ccc(F)c(F)c1)C(C(=O)COC)C(=O)OC (configuration not stated) | -9%&-10%
CCC(C)NC(=O)CC(NS(=O)(=O)c1ccc(C)cc1)c1ccc(OC)cc1 (configuration not stated) | -2%
Cc1ccc(-c2nc3ncccc3o2)cc1NC(=O)Cc1ccc(Cl)cc1 | ?
CCOC(=O)C1Oc2ccccc2C(c2ccc(F)cc2)=C1C(=O)OC (configuration not stated) | -10%
CCOc1ccc(S(=O)(=O)NCC2CCCO2)cc1 (configuration not stated) | -2%
CCC1CCCCN1C(=O)Cn1c(C(=O)OC)cc2ccsc21 (configuration not stated) | -10%
O=C(NCC1CCCO1)c1ccc2c(c1)OCO2 (configuration not stated) | 2µM*
O=C(NC1CC2CCCC(C1)N2C(=O)NC1CCCCC1)c1ccccc1 (configuration not stated) | -5%
Nc1cc(N)nc(SCC(=O)Nc2ccccc2)n1 | -21%
Cc1nn(Cc2ccc([N+](=O)[O-])cc2)c(=O)n1-c1c(F)cccc1F | -16%
Cc1ncc(CO)c(C=O)c1O | -28%
CCN(CC)CCCOC(=O)C1(c2ccccc2)CCCC1 | 0%
Cc1ccc(-c2cc3cccc[n+]3cc2-c2ccc(C)cc2)cc1 | ?
Cc1c(Cl)cccc1NC(=S)NCc1cccn1C | -8%
CNC(=O)[C@]1(C)C[C@H]1[C@H](NC(=O)[C@]1(C)C[C@H]1[C@H](NC(=O)OCc1ccccc1)c1ccccc1)c1ccccc1 | -8%
Cc1ccc(-c2cc(-c3ccccc3O)nc(N/N=C/c3cccnc3)n2)cc1 | -8%
CS(=O)(=O)Nc1ccc(C(=O)NC2CCCC2)cc1 | -19%
CCCOc1ccc(-c2cnc(SCC(N)=O)nc2N)cc1 | -23%
CCc1ccc(-c2nn(Cc3ccccc3)cc2/C=C/C(=O)O)cc1 | -2%
COc1ccc2[nH]cc(CCNc3nc(-c4ccc(C(=O)N(C)C)cc4)nc4ccccc34)c2c1 | -28%
CCCCOc1cccc(C(=O)O)c1 | 0%
CC(C(=O)c1ccccc1)n1cnc2ccccc2c1=O (configuration not stated) | -4%
CC1CC[C@@]23CCC4(C)[C@@]5(C)CCC6C(C)(C)C(O)CC[C@@]6(C)C5C=C[C@@]4(OC2=O)C3C1C (some centres not stated) | -5%
O=C1CCC[C@@H]2CC(NCc3ccc(Cl)c(Cl)c3)C[C@@H]3CCN1[C@H]23 (some centres not stated) | -7%
CCOC1(NC(=O)c2ccccc2)C(C)=CC(=O)C=C1C | -3%
COc1cccc(NC(=O)CSc2nnc(-c3cc(-c4ccccn4)nc4ccccc34)o2)c1 | -16%
CCN(CC)C1CC(=O)N(c2cccc(C)c2)C1=O (configuration not stated) | -28%
CCNS(=O)(=O)c1cc(S(C)(=O)=O)ccc1Cl | 3%
CCC(=O)Nc1nc(CC(=O)Nc2ccccc2)cs1 | 1%
O=c1c(-c2cc(F)cc(F)c2)nc2cnc(N3CCOCC3)nc2n1-c1ccccc1 | ?
CC(C)NC(C(=O)Nc1cc(Cl)cc(Cl)c1)c1ccccc1 (configuration not stated) | -17%
Cc1occc1-c1nc(-c2ccccn2)no1 | -11%
CCOC(=O)c1ccc(COC(=O)c2nonc2N)cc1 | -15%
N#Cc1nc(Cc2ccccc2)oc1N1CCN(c2ccccc2)CC1 | -16%
COC(=O)C1=NNC2(c3ccc(Cl)cc3)C(=O)N(c3ccc(Cl)cc3)C(=O)C12 (configuration not stated) | -8%
O=C(CNC(=O)c1ccccc1)OCc1cccc([N+](=O)[O-])c1 | -25%
CN(C)C(=O)c1ccc(-c2ccc3ncnc(NC4CCNCC4)c3c2)cc1 | ?
O=C(CCc1ccccc1)OCCN1CCOCC1 | -10%
COc1ccc(C2=NN(CN3C(=O)C(=O)c4ccccc43)C(c3ccc(C)cc3)C2)cc1 (configuration not stated) | -7%
CCCCCCN=CC1=C(O)CC(C)(C)CC1=O | -18%
CCc1nnc(NC(=O)CSc2nnc(-c3ccccc3NC(=O)c3ccccc3)o2)s1 | ?
CNCCCC1Sc2ccccc2Oc2ccccc21 (configuration not stated) | -2%
CCOc1ccc(-c2nc(C)c(C(C)=O)n2O)cc1 | -20%
CCOC(=O)CSc1nc(N)cc(=O)[nH]1 | -4%
C[C@H]1O[C@@H](n2cc(F)c(=O)[nH]c2=O)[C@H](O)[C@@H]1O | 2%
Cc1ccc(CCNc2ccccc2C)cn1 | -21%
COC(=O)c1ccc(NC(=O)CSC2=Nc3ccccc3C3CC=NN23)cc1 (configuration not stated) | -22%
CCOc1cc(NC(=O)c2ccccn2)c(OCC)cc1NC(=O)CC(C)C | -12%

Shown as labelled records: 2 of the compounds above.
smiles: O=C(CCc1ccccc1)OCCN1CCOCC1
  HPGD inh: -10%

smiles: CCc1nnc(NC(=O)CSc2nnc(-c3ccccc3NC(=O)c3ccccc3)o2)s1
  HPGD inh: ?

Additional compounds
SMILES | HPGD inh
CCOc1ccc(C(=O)/C=C/c2cn(CN3CCN(C)CC3)c3ccccc23)cc1 | -27%
Cc1ccccc1C(O)c1ccccn1 (configuration not stated) | 6%
CC1(C)CC2CC(C)(CN2c2ncnc3ccc(Br)cc23)C1 (configuration not stated) | ?
COc1ccc(CCNC(=O)CSc2nnnn2Cc2ccc3c(c2)OCO3)cc1OC | -8%
Cc1ccc(C(=O)NNc2cc(=O)n(C)c(=O)n2C)cc1C | -13%
COc1cc(/C=C/C(=O)N2CCN(CC(O)COc3ccccc3)CC2)cc(OC)c1OC (configuration not stated) | ?
CN1CCN(c2ccc(Cl)cc2NC(=O)c2nn(-c3ccccc3)c(=O)c3ccccc23)CC1 | -10%
CCOc1ccc(N(CC(=O)Nc2ccc(F)c(F)c2)S(=O)(=O)c2c(C)noc2C)cc1 | -8%
COc1ccc(-c2nc(C#N)c(NCc3ccccc3Cl)o2)cc1 | ?
O=C(CSc1nnc(-c2ccco2)o1)NC1CCCCC1 | -21%
COCCN1C(=O)c2ccccc2C(C(=O)N2CCN(c3ccccc3)CC2)C1c1ccc(F)cc1 (configuration not stated) | -7%
O=C(O)/C=C/c1cccc(NS(=O)(=O)c2ccccc2)c1 | -3%
CCCOC(=O)c1cccc(NC(=O)C(C)(C)C)c1 | -14%
Fc1ccccc1C(c1nnnn1C1CCCC1)N1CCN(Cc2ccccc2)CC1 (configuration not stated) | 2%
COc1ccc(C(OC(=O)c2ccco2)C(=O)NCc2ccco2)cc1 (configuration not stated) | -7%

An excerpt of the results above, for reference:
SMILES | HPGD inh
CCCCCCN=CC1=C(O)CC(C)(C)CC1=O | -18%
CCc1nnc(NC(=O)CSc2nnc(-c3ccccc3NC(=O)c3ccccc3)o2)s1 | ?
CNCCCC1Sc2ccccc2Oc2ccccc21 (configuration not stated) | -2%
CCOc1ccc(-c2nc(C)c(C(C)=O)n2O)cc1 | -20%
CCOC(=O)CSc1nc(N)cc(=O)[nH]1 | -4%
C[C@H]1O[C@@H](n2cc(F)c(=O)[nH]c2=O)[C@H](O)[C@@H]1O | 2%
Cc1ccc(CCNc2ccccc2C)cn1 | -21%
COC(=O)c1ccc(NC(=O)CSC2=Nc3ccccc3C3CC=NN23)cc1 (configuration not stated) | -22%
CCOc1cc(NC(=O)c2ccccn2)c(OCC)cc1NC(=O)CC(C)C | -12%
CCOc1ccc(C(=O)/C=C/c2cn(CN3CCN(C)CC3)c3ccccc23)cc1 | -27%
Cc1ccccc1C(O)c1ccccn1 (configuration not stated) | 6%
CC1(C)CC2CC(C)(CN2c2ncnc3ccc(Br)cc23)C1 (configuration not stated) | ?
COc1ccc(CCNC(=O)CSc2nnnn2Cc2ccc3c(c2)OCO3)cc1OC | -8%
Cc1ccc(C(=O)NNc2cc(=O)n(C)c(=O)n2C)cc1C | -13%
COc1cc(/C=C/C(=O)N2CCN(CC(O)COc3ccccc3)CC2)cc(OC)c1OC (configuration not stated) | ?
CN1CCN(c2ccc(Cl)cc2NC(=O)c2nn(-c3ccccc3)c(=O)c3ccccc23)CC1 | -10%
CCOc1ccc(N(CC(=O)Nc2ccc(F)c(F)c2)S(=O)(=O)c2c(C)noc2C)cc1 | -8%
COc1ccc(-c2nc(C#N)c(NCc3ccccc3Cl)o2)cc1 | ?
O=C(CSc1nnc(-c2ccco2)o1)NC1CCCCC1 | -21%
COCCN1C(=O)c2ccccc2C(C(=O)N2CCN(c3ccccc3)CC2)C1c1ccc(F)cc1 (configuration not stated) | -7%
O=C(O)/C=C/c1cccc(NS(=O)(=O)c2ccccc2)c1 | -3%

Going on with the list:
SMILES | HPGD inh
CCN(CC)c1ccc(C(=O)n2cnc3ccccc32)cc1 | ?
COc1cc(C)ccc1OCCCCN1CC(C)OC(C)C1 (configuration not stated) | 0%
Cc1ccccc1C(=O)NC(=S)NC1CCSC1=O (configuration not stated) | -10%
CCCC1O[C@@H]2C[C@H]3[C@@H]4CCC5=CC(=O)C=C[C@]5(C)[C@H]4[C@@H](O)C[C@]3(C)[C@]2(C(=O)CO)O1 (some centres not stated) | 6%
Cc1cc(O)c2c(c1)C(O)(C1OC(CO)C(O)C(O)C1O)c1cccc(O)c1C2=O (configuration not stated) | -1%
COc1ccc(CCNC(=O)C2CCN(S(=O)(=O)N3CCC4(CC3)OCCO4)CC2)cc1OC | -5%
COc1ccc(CN2C(=O)c3ccccc3C2C(=O)NCc2cccnc2)c(OC)c1 (configuration not stated) | -7%
O=C(Nc1ccccc1)c1cccc(S(=O)(=O)Oc2ccc([N+](=O)[O-])cc2)c1 | -20%
CC(C)(C)NC(=O)COC(=O)Cc1ccc(Cl)cc1 | -17%
COc1cc(NC(=O)c2ccc(COCC(F)(F)F)cc2)cc(OC)c1OC | -3%
C=CC1=C(C(=O)O)N2C(=O)C(NC(=O)Cc3ccccc3)C2SC1 (configuration not stated) | -11%
COc1ccccc1NC(=O)c1sc2nc(Cc3ccccc3)cc(C(F)(F)F)c2c1N | -7%
O=C(CN1CCCCC1)NCCNC(=O)CN1CCCCC1 | 0%
CCOC(=O)N1CCC(NC(=O)c2cc(S(=O)(=O)N3CCCC3)cn2C)CC1 | -9%
COc1ccc(C)cc1-n1nnnc1SCC(=O)N1CCC(C(=O)Nc2nccs2)CC1 | -15%
O=C(c1ccccc1-c1nc(-c2ccccc2)no1)N1CCOCC1 | 6%
CCOC(=O)Nc1cc(OC)c(OC)cc1Cc1nccc2cc(OC)c(OC)cc12 | 2%
CCC(O)(CCN1CCCCC1)c1ccccc1 (configuration not stated) | -5%
COC(=O)c1ccc(C(c2c(N)n(Cc3ccccc3)c(=O)n(C)c2=O)N2CCOCC2)cc1 (configuration not stated) | -13%
CCC(Sc1ccc(Cl)cc1)C(=O)Nc1nnc(-c2cccc([N+](=O)[O-])c2)s1 (configuration not stated) | -3%
COc1cccc2oc(SC)cc(=O)c12 | -18%
COc1ccccc1CNC(=O)c1cccc(-c2ccccc2OC)n1 | 7.9µM*
O=S(=O)(N/N=C/c1ccc(OC2CSC2)cc1)c1ccccc1 | -12%
CCCn1c(=O)c2ccccc2n2c(SCC(=O)c3cc(C)n(CCOC)c3C)nnc12 | -5%
O=C1c2ccccc2C(Nc2ccc(Cl)cn2)N1Cc1ccccc1 (configuration not stated) | -21%
Nc1sc(-c2ccccc2)cc1C(=O)O | ?
Cc1ccc(S(=O)(=O)N(C)C)cc1NC(=O)CCNC(=O)c1ccccc1Cl | -1%
Cn1cccc1Cc1nnc(SCC(=O)Nc2ccccc2F)n1CCc1ccccc1 | -14%
O=C(CN1C2=NCCCN2c2ccccc21)c1ccc(Br)s1 | -8%
CCOc1ccc(C(=O)N(CN2CCCC2=O)c2ccc(C)cc2)cc1 | -5%
OC[C@H]1NC[C@H](O)[C@@H](O)[C@H]1O | -11%
CCN(C(=O)CCN1C(=O)c2ccccc2C1=O)C1CCCCC1 | -18%
COC(=O)c1ccc(N2CCCCC2)c(NS(=O)(=O)c2ccc(C)cc2)c1 | -12%
O=C(CSc1nc2ccccc2s1)c1cc2ccccc2o1 | 22µM*
COc1ccc(C)cc1S(=O)(=O)N1CCN(c2cccc(C(F)(F)F)c2)CC1 | -10%
O=C(c1ccccc1)c1c[nH]c(C(=O)NCc2cccnc2)c1 | ?
CC(C)CCn1c(N)c(S(=O)(=O)c2cccs2)c2nc3ccccc3nc21 | ?
CCOC(=O)C1=C(c2ccccc2)NC(SCC(=O)NC2CCCCC2)=C(C#N)C1c1ccco1 (configuration not stated) | -28%
O=C(O)COc1cccc(NC(=O)C2CCCO2)c1 (configuration not stated) | -6%
CN1CCN(NC(=O)COc2cccc(C(F)(F)F)c2)CC1 | -4%
CCOC(=O)c1cc(-c2ccc(C)cc2)n(CCC(=O)N2CCN(c3ccccn3)CC2)c1C | -20%
O=C(CCCC(=O)N1CCc2ccccc21)N1CCc2ccccc21 | -8%
CCOC(=O)CNC(=O)c1c2c(nc3ccccc13)CCCC2 | -3%
CCCCN(Cc1ccccc1)C(=O)c1cnc2n(c1=O)CCS2 | -23%
